hNpr1 antagonist: Natriuretic polypeptide receptor (hNpr1) antagonism - Primary qHTS; HEK293 hNpr1 GloSensor cGMP, ANP-stimulated luminescence; Atrial natriuretic peptide receptor 1 (Homo sapiens), P16066; Potency, µM (series often up to 46.3 µM), for inactives: at the highest dose activity change, negative = inhibition, actives largely listed as inhibitors; 1.6% of 76,000 active; AID 1347048, 2019; active = well fitted inhibition curve with a large enough effect; inconclusive = small, poorly fitted or top-dose-only effect; inactive = no such curve, though single readings can be large or run the other way;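 note: nearly all actives have a fitted effect of over 60% in size; nearly all hits also lower the signal before the agonist is added; a reference antagonist and vehicle were the controls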
Target sequence (P16066 whole entry, looked up): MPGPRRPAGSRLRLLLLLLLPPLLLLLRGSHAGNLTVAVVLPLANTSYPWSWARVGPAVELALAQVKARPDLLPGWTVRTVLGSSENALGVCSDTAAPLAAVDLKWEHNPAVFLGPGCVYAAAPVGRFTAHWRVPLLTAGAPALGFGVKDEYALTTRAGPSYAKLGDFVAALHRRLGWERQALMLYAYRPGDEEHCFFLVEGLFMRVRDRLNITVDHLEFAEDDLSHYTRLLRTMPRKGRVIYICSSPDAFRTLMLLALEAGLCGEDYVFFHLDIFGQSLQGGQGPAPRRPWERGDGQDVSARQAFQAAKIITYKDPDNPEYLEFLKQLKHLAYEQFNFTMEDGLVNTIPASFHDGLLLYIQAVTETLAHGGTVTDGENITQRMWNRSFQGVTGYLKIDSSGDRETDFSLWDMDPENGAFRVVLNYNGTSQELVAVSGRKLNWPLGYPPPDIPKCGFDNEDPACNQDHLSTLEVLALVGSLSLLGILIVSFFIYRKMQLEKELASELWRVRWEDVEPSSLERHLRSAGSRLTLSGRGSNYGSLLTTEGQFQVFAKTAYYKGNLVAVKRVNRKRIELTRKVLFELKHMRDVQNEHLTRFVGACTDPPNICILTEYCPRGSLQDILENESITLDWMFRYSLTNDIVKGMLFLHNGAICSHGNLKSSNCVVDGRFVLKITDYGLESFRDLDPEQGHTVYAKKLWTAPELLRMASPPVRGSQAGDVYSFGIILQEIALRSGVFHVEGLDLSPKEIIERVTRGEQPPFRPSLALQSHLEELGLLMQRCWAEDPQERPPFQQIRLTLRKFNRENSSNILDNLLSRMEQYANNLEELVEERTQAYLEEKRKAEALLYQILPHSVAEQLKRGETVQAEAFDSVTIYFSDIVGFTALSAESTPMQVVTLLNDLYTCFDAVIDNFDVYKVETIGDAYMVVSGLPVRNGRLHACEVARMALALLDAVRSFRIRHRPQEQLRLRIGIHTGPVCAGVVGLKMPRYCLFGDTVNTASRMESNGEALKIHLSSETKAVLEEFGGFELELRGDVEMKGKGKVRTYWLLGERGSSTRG
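HEK293 cells stably expressing human Npr1 and cGMP GloSensor pGS-40F, loaded 2 h with 2% GloSensor reagent, given compound 30 min at room temperature. Luminescence read before and 20 min after 0.1 nM hNppA.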
Numbers without * were called inactive; u = inconclusive; [ ] = another dose, or the depositor's remark. % is set by controls: 0 for no effect and ±100 for the full control effect; potency is the fitted concentration of half-maximal effect. Some of the compounds tested; the hit share may differ from the screen's.

SMILES	hNpr1 antagonist
CNC(=O)[C@H]1C[C@H](Oc2ccccc2)CN1Cc1ccc(F)c(F)c1	-12%
Cc1ccc(NC(=O)Cn2nc3n(c2=O)CCCC3)cc1F	-2%
CC[C@@H]1[C@@H](NC(=O)c2[nH]nc(N)c2-c2ccccc2)[C@@H]2CCO[C@H]12	0%
CC(C)(C)c1ccnc(N[C@H]2CO[C@H]3[C@@H]2OC[C@@H]3NS(=O)(=O)c2cccs2)n1	10µM*
CCC(=O)N(C1CCOCC1)C1CCN(Cc2ccc(SC)cc2)CC1	1%
O[C@@H]1C[C@@H](c2nc(-c3ccccn3)no2)N(Cc2cccs2)C1	-16%[70.6 µM]
CN1CCCN(C(=O)C2CCCC2)c2ccccc21	-5%
COc1ccc(NC(=O)c2cccc3c2CCN3C(=O)c2ccc(F)cc2)cc1OC	-30%
O=c1n(-c2ccc(C(F)(F)F)cc2)nc2n1CCN(Cc1ccc(C(F)(F)F)cc1)C2	u
Cc1ccc(C)c(CN2CCc3nc(N(C)Cc4cccnc4)[nH]c(=O)c3CC2)c1	-4%
COCC(=O)N[C@H]1C[C@@H](CO)N(Cc2ccc(C)s2)C1	-6%
Cc1noc(-c2ccc(C(C)(C)C)cc2)c1C(=O)NCc1cccc(Cl)c1	1%
CCOc1cccc(-c2nc(C(=O)NCC3CCCO3)cs2)c1 (stereo not drawn)	-13%
Cc1noc(C)c1Cc1ccc(C(=O)N2CCCCCCNC(=O)[C@@H]3CCCC[C@@H]32)o1	-3%
CC(C)(C)CC(=O)N[C@@H]1C=C(C(=O)NCC(N)=O)C[C@@H](O)[C@@H]1O	13%[70.6 µM]
CN(C)CCNc1cc2c(cn1)NCCN(Cc1ccccc1)C2	-1%[70.6 µM]
Cn1cccc1C(=O)N1CCc2nn(Cc3ccccc3)c(=O)n2CC1	3%
NC(=O)N1CCCC(C(=O)NCc2ncc3c(n2)CCC3)C1 (stereo not drawn)	1%
COc1ccc2nc3n(c2c1)[C@@H](CNC1CCOCC1)COC3	1%[70.6 µM]
Cc1ccc(NC(=O)C2CC(=O)Nc3ncnn32)cc1 (stereo not drawn)	0%
CNC(=O)[C@@H](C1CC1)N1CCC[C@H]1C(=O)NCCOC	-3%[70.6 µM]
COCCOc1ccc(-c2noc([C@@H]3CCCN3Cc3cccnc3)n2)cn1	-16%[70.6 µM]
CCC(CC)C(=O)NC[C@H]1O[C@@H](CC(=O)N2CCN(c3ccccn3)CC2)[C@H](O)[C@@H]1O	2%[70.6 µM]
c1ccc(OCc2noc(-c3ccc(NC4CCSC4)nc3)n2)cc1 (stereo not drawn)	-12%
COC1CCOC2(CCN(S(=O)(=O)c3ccccc3C)CC2)C1 (stereo not drawn)	-2%
Cc1ccc(C(=O)N[C@H](c2ccc(F)cc2)C2CC(O)C2)cc1N1CCNC1=O (stereo partly drawn)	5%
COCc1cn([C@H]2CO[C@H]3[C@@H]2OC[C@H]3OC(=O)Nc2cccc(C#N)c2)nn1	-18%[70.6 µM]
COC(=O)C1=C(C)N=C2SC=C(CC(=O)NCC3CCCO3)N2C1c1ccc(OC)cc1OC (stereo not drawn)	-3%
COCCNC(=O)[C@@H]1C[C@H](Oc2ccccc2)CN1C(=O)c1nn(C)c2ccccc12	5%
O=S(=O)(c1cccnc1)N1CCC(c2nc(C3CC3)no2)C1 (stereo not drawn)	-1%
Cc1ccc(CN2C[C@@H]3C(=O)N(CCc4ccccc4)C(=O)[C@@H]3C2)cc1	-4%
Cc1ccc(CNC(=O)CN2CC3CC(C2)[C@H]2CCCC(=O)N2C3)cc1 (stereo partly drawn)	-7%
COc1ccc(-c2cc(N3CCOCC3=O)c3cncn3c2)cc1OC	1%[70.6 µM]
CC1=C[C@@H](CNC(=O)c2ccccc2)[C@H](C(C)C)C[C@H]1Cc1nc2ccncc2[nH]1	u
O=C(NCCc1nc(-c2ccccc2)cs1)C1NCCc2[nH]cnc21 (stereo not drawn)	6%
Cc1noc2c(-c3cccc(CO)c3)cc(-c3ccc(F)cc3)nc12	2%[70.6 µM]
COc1cc(-c2noc(-c3nc(-c4ccccc4F)no3)n2)cc(OC)c1OC	-3%
CCCC(=O)N1CC(c2nc(C)no2)C2(CCOCC2)C1 (stereo not drawn)	5%
O=C(CCc1c[nH]c2ccccc12)N1CCC(c2noc(C3CC3)n2)C1 (stereo not drawn)	7%
COc1ccc(CN2CCC(CO)(CN3CCCC3)CC2)cc1OC	5%
COc1ccc(CN2CC(CN[S+](=O)([O-])c3ccccc3)C3(C2)CN(c2ccccc2)C3)cc1O (stereo not drawn)	-11%
Nc1nc(CC(=O)N[C@H](c2ccccn2)C2CC(O)C2)cc(=O)[nH]1 (stereo partly drawn)	-1%
CN1C(=O)CS(=O)(=O)C12CCN(C(=O)c1ccc(F)cc1F)CC2	-3%
CCc1ccc(C2CC(C(=O)NCc3ccc4c(c3)OCO4)CN(C(=O)c3ccc(F)cc3)C2)cc1 (stereo not drawn)	-15%
NC(=O)[C@H](CC1CCCCC1)NC(=O)[C@H]1CN(C(=O)C2CCNCC2)CCN1C(=O)c1cccs1	-8%
COCC(=O)N(C)C(C)c1cccs1 (stereo not drawn)	15%[70.6 µM]
COC(=O)c1ccc(CN2C(=O)[C@@H]3C[C@@H](O)CN3C3(CN(CC4CCCCC4)C3)C2=O)cc1	2%
N#Cc1cccc(NC(=O)O[C@@H]2CO[C@H]3[C@@H]2OC[C@@H]3Nc2nccc(-c3ccc4c(c3)OCO4)n2)c1	-30%
COc1cc(NC(=O)N[C@H]2CO[C@H]3[C@@H]2OC[C@@H]3Nc2nccc(-c3ccc(N(C)C)cc3)n2)cc(OC)c1	-14%
COc1nc2c(cc1CNC(=O)C1COCCO1)C(=O)N(C1CCCC1)C2 (stereo not drawn)	-5%
Later entries.
SMILES	hNpr1 antagonist
CC(C)N1CCC(CCN2C(=O)[C@H]3CN(S(=O)(=O)c4ccccc4)C[C@H]3C2=O)CC1	2%
CC(=O)NC1(C)CN(c2ccc(OC(F)(F)F)cc2)C1	-13%[70.6 µM]
CC(=O)Nc1ccc(-c2ccc(=O)n3c2[C@@H]2C[C@@H](CN(S(=O)(=O)c4ccccc4)C2)C3)cc1	5%
CC(=O)N1CCC(N2C(=O)C3(CCCC3)C2c2scnc2C)CC1 (stereo not drawn)	4%
COc1cccc(NC(=O)[C@@H]2C[C@@H](c3ccc(F)cc3)N([S+](=O)([O-])c3cccnc3)C2)c1	-2%
c1cc(-c2ccc3c(c2)OCCCO3)n2ncnc2n1	-1%
Cc1ccc(CCN2C[C@]34C=C[C@H](O3)C(C(=O)N(C)Cc3nccn3C)C4C2=O)cc1 (stereo partly drawn)	0%
Cc1ccccc1C(=O)Nc1ccnn1C1CCN(C(=O)C2(C(N)=O)CC2)CC1	6%
CC(C)CNC(=O)N1C[C@@H](Oc2ccccc2)C[C@@H]1C(=O)N1CCOCC1	4%
Cc1cc(NCCN2CCNC2=O)n2nc(C)cc2n1	0%

Arranged by length of the SMILES (largest number first): 14 of the compounds above
SMILES	hNpr1 antagonist
COc1cc(NC(=O)N[C@H]2CO[C@H]3[C@@H]2OC[C@@H]3Nc2nccc(-c3ccc(N(C)C)cc3)n2)cc(OC)c1	-14%
COc1cccc(NC(=O)[C@@H]2C[C@@H](c3ccc(F)cc3)N([S+](=O)([O-])c3cccnc3)C2)c1	-2%
COC(=O)c1ccc(CN2C(=O)[C@@H]3C[C@@H](O)CN3C3(CN(CC4CCCCC4)C3)C2=O)cc1	2%
NC(=O)[C@H](CC1CCCCC1)NC(=O)[C@H]1CN(C(=O)C2CCNCC2)CCN1C(=O)c1cccs1	-8%
CC(C)N1CCC(CCN2C(=O)[C@H]3CN(S(=O)(=O)c4ccccc4)C[C@H]3C2=O)CC1	2%
Cc1ccc(CCN2C[C@]34C=C[C@H](O3)C(C(=O)N(C)Cc3nccn3C)C4C2=O)cc1 (stereo partly drawn)	0%
CC(C)CNC(=O)N1C[C@@H](Oc2ccccc2)C[C@@H]1C(=O)N1CCOCC1	4%
Cc1ccccc1C(=O)Nc1ccnn1C1CCN(C(=O)C2(C(N)=O)CC2)CC1	6%
COc1nc2c(cc1CNC(=O)C1COCCO1)C(=O)N(C1CCCC1)C2 (stereo not drawn)	-5%
CC(=O)N1CCC(N2C(=O)C3(CCCC3)C2c2scnc2C)CC1 (stereo not drawn)	4%
CC(=O)NC1(C)CN(c2ccc(OC(F)(F)F)cc2)C1	-13%[70.6 µM]
c1cc(-c2ccc3c(c2)OCCCO3)n2ncnc2n1	-1%
Cc1cc(NCCN2CCNC2=O)n2nc(C)cc2n1	0%
COCC(=O)N(C)C(C)c1cccs1 (stereo not drawn)	15%[70.6 µM]

Other results follow.
SMILES	hNpr1 antagonist
O=C(Cc1ccc(Cl)cc1)N1CCC2(CC1)N(c1ccccc1)C(=O)CS2(=O)=O	-2%
O=C(CCc1nc2ccccc2[nH]c1=O)N1CCN(CCn2cncn2)CC1	-2%
Cc1cc(C[C@@H]2COC[C@@H]2NC(=O)c2ccc(Oc3ccccc3)o2)on1	0%
CCCc1nc(NCc2nc(Cc3cccs3)no2)c2cnn(C)c2n1	13µM*
O=C(Nc1cccc(F)c1)[C@@H]1C[C@@H](c2ccc(F)cc2)N([S+](=O)([O-])c2ccccc2)C1	-7%
Cc1ccc(-n2nc(C)c([C@H]3C=C[C@@H](OC(=O)N[C@H](C)c4ccccc4)C3)c2C)cc1Cl	-19%
Cc1ccc(C(=O)N2[C@@H]3CC[C@H]2CC(NC(=O)c2ccncc2)C3)cc1 (stereo partly drawn)	1%
COc1ccc(CN2C(=O)[C@@H]3C[C@@H](O)CN3C3(CN(C(C)C)C3)C2=O)cc1	12%[70.6 µM]
C=CCN1CCN(C(=O)CCC[C@@H]2[C@H]3CCCN4CCC[C@@H](CN2C(=O)c2ccccc2)[C@@H]34)CC1	-5%
COCCOC1CCN(S(=O)(=O)Cc2ccccc2F)CC1	-1%
O=C(c1ccccc1F)N1CCN(C(=O)c2nnn3c2COC(c2ccccc2)C3)CC1 (stereo not drawn)	-11%
COCCc1noc(-c2ccccc2OC2CN(C(=O)CC3CCCC3)C2)n1	-3%
COc1cccc(C(=O)N2C(C(=O)NC(C)C)COC23CCN(C(=O)c2cccc(F)c2)CC3)c1 (stereo not drawn)	-2%
C#CCNC(=O)c1nc(-c2cccc(C(F)(F)F)c2)c2cnccn12	u
Cn1c(-c2cn(C3CCNCC3)nn2)nc2ccccc21	2%
CCc1noc(-c2nc(-c3ccccc3C)no2)n1	2%
O[C@H]1[C@H](NCc2cnc3ccccc3c2)[C@@H](c2ccc(N3CCOCC3)nc2)C[C@H]1O	7%[70.6 µM]
CN1C[C@H](C(=O)Nc2ccncn2)C[C@H]1c1cccc(C(F)(F)F)c1	-8%[70.6 µM]
O=[N+]([O-])c1cccc(-c2noc([C@@H]3C[C@@H](O)CN3CC3CCCCC3)n2)c1	-12%[70.6 µM]
CCC(=O)N(C1CCOCC1)C1CCN(S(=O)(=O)c2cc(F)cc(F)c2)CC1	-1%
CN1CC(=O)N(c2ccc(Cl)cc2)Cc2c(NC3CCCCC3)ncnc21	6%
COc1ccc(CN2CCNc3cnc(Nc4ccccc4)cc3C2)cc1	u
COCCOCC1(CNC(=O)C2CCCC2)C[C@@H](O)[C@@H](O)C1 (stereo partly drawn)	-1%[70.6 µM]
O=C(Nc1cccnc1)c1nc2c(o1)CCN(Cc1ccc3[nH]ccc3c1)CC2	-15%[70.6 µM]
COCCOCC1(CNC(=O)c2cnccn2)C[C@@H](O)[C@@H](O)C1 (stereo partly drawn)	6%[70.6 µM]
C=CCOC(=O)C1=C(C)N=C2SC=C(CC(=O)N3CCCC3)N2C1c1ccc(OC)cc1OC (stereo not drawn)	-17%
Cn1nccc1CN1CCn2c(nnc2C2CCCNC2)C1 (stereo not drawn)	0%[70.6 µM]
O=C1[C@H]2CN(Cc3ccc(C(F)(F)F)cc3)C[C@H]2C(=O)N1CCc1ccccc1	-29%
CN(CC1CCOCC1)C(=O)c1cc(F)cc(F)c1	-6%
CC[C@@]1(C(=O)O)C[C@H](C(=O)NCCOC)[C@H](c2ccc(OC)cc2)N1C	0%
O=C1[C@@H]2C[C@@H](CN2C(=O)c2cncnc2)Oc2ccccc2N1Cc1ccccn1	5%[70.6 µM]
O=C(CC1=C2CCCCC2NC1=O)NC1CCCC1 (stereo not drawn)	-9%
O=C(c1cccnc1)N1CCC2(CC1)C(=NC1CCCC1)NC(=O)N2c1cc(F)cc(F)c1	14%
O=C(NCc1cccnc1N1CCOCC1)c1ccco1	0%
O=C(NCC1CC1)c1cccc(OC2CN(Cc3ccc(OC(F)(F)F)cc3)C2)c1	-11%
Cc1cccc(S(=O)(=O)N2C[C@@H]3CCCN4CCC[C@@H]([C@H]34)[C@H]2CCCC(=O)N2CCOCC2)c1	1%
Cc1noc(C)c1-c1cc(-c2ccc(CO)cc2)cn2cncc12	-2%[70.6 µM]
COCC1CN(C2CCC2)CC12CCN(C(=O)C1CC1)CC2 (stereo not drawn)	-1%
O=C(NC[C@H]1Cn2c(-c3ccc(F)cc3)cnc2CO1)NC1CCCCC1	-16%[70.6 µM]
CCc1nc2c(c(-c3ccc(Cl)cc3)n1)CCN(C(=O)c1ccc3c(c1)OCO3)CC2	3%
O=C(Cn1ccn2nc(-c3ccccc3)c(CO)c2c1=O)Nc1ccc(F)c(Cl)c1	-2%
Cn1nccc1C(=O)N1CCCC1c1nc(C2CCOCC2)no1 (stereo not drawn)	3%

Screening results as filed in PubChem.
